Screening data as filed in PubChem.
HSV replic up: HSV replication enhancement; HSV replication augmentation in cells, fold increase; maximum fold increase; 0.005% of 220,000 active; AID 1956;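 active = peak rise of 1.5-fold or more in the series; inconclusive = self-fluorescent or not available for retest; tested in PC3 cells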;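 also: first round at 10 µM; read as green reporter fluorescence; hits show the peak of a series up to 25 µM; 1 = signal of infected wells without compound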
RGS16-Gao HTS: modulates binding between human RGS16 and Galphao | bead-based flow cytometry RGS16-Galphao binding, fluorescence; actives lie on both sides | 0.38% of 220,000 active | O15492+P09471 | binding response (% of control), % at 10 µM | AID 1441;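 active = below 25% or above 175%, edge rows of some plates excepted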;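 also: Galphao activated by GDP with aluminum fluoride before binding; 100% = wells without compound and 0% = beads without RGS; some results beyond the cut were filed as inactive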
Target sequence (O15492 whole entry, looked up): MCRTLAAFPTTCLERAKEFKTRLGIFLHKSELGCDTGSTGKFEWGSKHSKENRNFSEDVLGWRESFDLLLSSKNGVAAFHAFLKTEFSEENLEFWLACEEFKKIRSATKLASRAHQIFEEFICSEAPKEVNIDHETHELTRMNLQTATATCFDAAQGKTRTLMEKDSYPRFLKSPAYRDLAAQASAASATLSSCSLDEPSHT
Target sequence (P09471 whole entry, looked up): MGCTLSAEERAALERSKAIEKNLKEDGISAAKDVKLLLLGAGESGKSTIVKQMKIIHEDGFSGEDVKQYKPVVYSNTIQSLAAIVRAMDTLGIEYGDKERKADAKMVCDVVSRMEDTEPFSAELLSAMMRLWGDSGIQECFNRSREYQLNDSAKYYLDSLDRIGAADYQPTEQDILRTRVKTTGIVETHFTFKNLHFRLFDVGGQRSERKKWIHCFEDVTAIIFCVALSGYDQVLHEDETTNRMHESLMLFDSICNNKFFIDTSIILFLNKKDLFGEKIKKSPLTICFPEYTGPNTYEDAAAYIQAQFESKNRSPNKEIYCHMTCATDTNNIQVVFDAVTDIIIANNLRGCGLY
PKD1 kinase inh: blocks activity of human protein kinase D1; PKD1 kinase fluorescence polarization assay; 0.056% of 200,000 active; inhibition, %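 (about 10 µM by stock and volumes)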; Q15139;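 active = inhibition of 50% or more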;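 also: controls were vehicle for no effect and a reference inhibitor for full effect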
INS promoter inh: TRM-6 insulin promoter activity inhibition. inhibition, % at 2 µM. 0.9% of 130,000 active. AID 1273. TRM-6 cells (human fetal islet line), insulin promoter-eGFP reporter, imaging; reporter expression induced with tamoxifen;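 active = inhibition above the mean plus 3 SD, with well images judged a real hit on visual review, cut at about 60% in these data, passing the limit was not always enough; inconclusive = inhibition over the cutoff but images rejected on review; inactive = inhibition not above the cutoff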
GALR2 ag: activates the human galanin receptor 2. O43603. GALR2-expressing cells, agonist activation read-out. 0.48% of 140,000 active. activation, %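 (tested at 5 µM)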;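 active = above mean plus 3 SD of all compounds, about 5% in these data, not always enough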;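 also: 0% = vehicle buffer wells and 100% = reference agonist at full effect; tested in CHO reporter cells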
Target sequence (O43603 whole entry, looked up): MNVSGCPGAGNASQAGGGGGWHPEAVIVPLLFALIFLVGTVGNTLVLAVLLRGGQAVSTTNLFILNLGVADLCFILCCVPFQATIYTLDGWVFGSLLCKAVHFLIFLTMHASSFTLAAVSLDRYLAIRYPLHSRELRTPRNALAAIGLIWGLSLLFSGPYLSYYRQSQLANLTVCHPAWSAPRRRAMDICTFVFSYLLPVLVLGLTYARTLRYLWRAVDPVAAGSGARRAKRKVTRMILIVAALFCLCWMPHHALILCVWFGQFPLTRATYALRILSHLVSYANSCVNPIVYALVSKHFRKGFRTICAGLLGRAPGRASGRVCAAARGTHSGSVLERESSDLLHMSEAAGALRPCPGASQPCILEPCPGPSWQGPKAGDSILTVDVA
INS promoter inh cell count: recorded beside INS promoter inh, whose call it bears; normalized cell count, %; measured here: cell count, toxicity; reference of the scale not given here;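 cells exposed to compound for 48 h; stained nuclei by imaging scaled within each plate; lower means fewer cells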
HSV replic up primary fold: further read-out of HSV replic up, marked with its call; fold increase; compound at 10 µM; measured here: primary screen fold increase 10 uM; tested in PC3 cells;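 GFP signal in the first replicate; 1 = infected wells without compound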
* hit, by the source's call; i = inactive; ? = inconclusive; . = no result given. Random draw from the library; any-hit rate near 1.3%.

SMILES	HSV replic up	HSV replic up primary fold	RGS16-Gao HTS	PKD1 kinase inh	INS promoter inh	INS promoter inh cell count	GALR2 ag
Cc1nc2ccccc2c(=O)n1NC(=O)Cc1ccccc1	.	.	.	-7	57	144	-2.5
N#Cc1c(N)nc(-c2ccccc2)nc1-c1ccccc1	i	0.73	105	-1	.	.	-1.4
Oc1ccc2ccccc2c1N=Nc1ccccn1	i	0.4	100	1	43	73	-3.7
CCOC(=O)c1nccnc1C(=O)Nc1cccc(C(F)(F)F)c1	i	0.89	106	-3	-29	114	.
Cc1csc(SCC(=O)O)n1	i	0.86	102	-11	-62	39	-2.7
COc1ccc(OC)c(-c2cc(C(=O)N3CCN(c4ccccc4)CC3)no2)c1	i	0.91	101	-14	.	.	-0.6
CCn1c(=O)cc(SCC(=O)NCc2ccccn2)c2ccccc21	i	1.5	101	-9	.	.	-0.4
CCN(CCO)Cc1csc2c(Br)cccc12	i	0.96	83	18	.	.	-0.3
CCCOc1ccc(N2C(=O)CC(N(C(=O)c3ccco3)c3ccc(OCCC)cc3)C2=O)cc1 (configuration not stated)	i	0.9	100	2	-3	67	-0.7
Cc1nn(-c2ccccc2)c(C)c1/C=N/n1c(-c2ccc(Cl)cc2)n[nH]c1=S	i	0.91	117	8	0	87	0.6
Fc1ccc(OCc2nc(-c3ccc(Br)o3)no2)c(F)c1	i	0.85	87	7	.	.	0.0
Cc1ccccc1N(C(=O)Cc1ccsc1)C(C(=O)NC1CCCCC1)c1ccc(F)cc1 (configuration not stated)	i	0.77	99	5	-18	137	-0.9
Cc1cccc(NC(=O)c2snc3c(=O)[nH]cnc23)c1	i	1	91	-2	21	102	-2.9
CN(C)c1ccc(NC(=O)Cn2cc3c(n2)CCCC3)cc1	i	1.1	103	-1	29	119	-0.8
Cc1csc(NC(=O)CSc2nc3[nH]ncc3c(=O)[nH]2)n1	i	0.87	107	-5	-64	76	.
O=C(NNC(=O)c1cc2cc(OC(F)(F)F)ccc2[nH]1)c1ccc(Cl)cc1	i	0.99	101	.	.	.	.
CCC(C)(C)NC(=O)C(c1ccccn1)N(C(=O)c1csnn1)c1ccccc1 (configuration not stated)	i	0.98	104	-5	.	.	.
COc1cccc(-n2c(SCC(=O)N3CCOCC3)nnc2-c2c[nH]c3ccccc23)c1	i	0.8	100	-2	.	.	-2.7
O=CNNC(=O)c1cccc([N+](=O)[O-])c1	i	1	99	-23	27	102	-0.7
CC(=O)Nc1ccc(-c2nnn(CC(=O)c3ccccc3)n2)cc1Cl	i	0.9	102	4	.	.	-3.2
CCOc1ccc(-c2[nH]nc3c2C(c2ccc4c(c2)OCO4)C(C#N)=C(N)O3)cc1OC (configuration not stated)	.	.	117	-4	-28	106	0.4
Cc1cc(C)nc(NC(=O)CSc2nc3cc(Cl)ccc3s2)n1	i	1.1	105	-3	43	71	-1.8
COc1cc(C(=O)Nc2ccc(S(=O)(=O)Nc3onc(C)c3C)cc2)cc(OC)c1OC	i	1	101	-2	.	.	-1.5
O=C(CSc1nnc(-c2c[nH]c3ccccc23)o1)N1c2ccccc2CCc2ccccc21	i	0.81	117	-7	.	.	-0.6
CCN(CC)C(=O)N1CCN(S(=O)(=O)c2ccccc2)CC1	i	0.93	105	-1	27	141	.
CCCSc1nc(N2CCCC2)c2c(c1C#N)CC(C)(C)OC2	i	0.77	102	1	43	157	-1.5
C/C(=N\Nc1ccccn1)c1ccc(S(=O)(=O)NCc2ccco2)cc1	i	0.84	105	-7	-3	113	0.5
Cc1cc(NC(=O)CSc2nnnn2Cc2ccccc2)no1	i	0.77	100	3	17	245	-1.4
O=C(c1ccncc1)c1ccc(NS(=O)(=O)c2ccc(Br)s2)cc1	i	0.95	99	7	.	.	-1.8
Cc1cc(=O)[nH]c(SCc2nc3ccccc3s2)n1	i	0.97	100	-8	.	.	-2.3
CCOc1cc(C2C3=C(CCCC3=O)NC3=C2C(=O)CCC3)ccc1OCCO	i	1	100	-2	i	48	-2.7
O=C(Nc1cccc(Cl)c1)C1=Cc2cc(Cl)ccc2OC1	i	0.98	106	-8	-14	112	-2.9
COc1ccc(/C=C/C(=O)NCCNC(=O)c2ccccc2)cc1OC	i	0.95	104	-3	-8	122	.
O=C(NCCc1ccccc1)C1CCN(C2CCN(Cc3ccc(CO)o3)CC2)CC1	i	0.87	98	4	67	113	.
CCOC(=O)c1c(C)[nH]c(C)c1C(=O)CSc1nc2ccccc2n1CC	i	0.94	70	-5	.	.	-0.6
Cc1nn2c(=O)nc3sc4c(c3c2[nH]c1=O)CCCC4	i	1.2	.	0	-344	95	-1.9
COc1ccccc1-c1nn2c(C(F)(F)F)nnc2s1	i	1.5	102	-9	.	.	-0.9
COc1cccc(NC(=O)N2CCN(C(=O)C(Cc3ccc(OC)c(OC)c3)NC(C)=O)CC2)c1 (configuration not stated)	i	1	103	-4	28	102	0.5
O=C(O)c1ccc2cc[nH]c2c1	i	0.99	99	-6	.	.	-2.4
CCC(Sc1nc2ccccc2[nH]1)C(=O)Nc1cc(C)on1 (configuration not stated)	i	0.88	102	4	-11	89	-0.1

In another format: entries from further up
Sequence of screens – HSV replic up, HSV replic up primary fold, RGS16-Gao HTS, PKD1 kinase inh, INS promoter inh, INS promoter inh cell count, GALR2 ag
- Cc1cc(=O)[nH]c(SCc2nc3ccccc3s2)n1
→ i, 0.97, 100, -8, ., ., -2.3
- Cc1nn2c(=O)nc3sc4c(c3c2[nH]c1=O)CCCC4
→ i, 1.2, ., 0, -344, 95, -1.9

The list goes on.
SMILES	HSV replic up	HSV replic up primary fold	RGS16-Gao HTS	PKD1 kinase inh	INS promoter inh	INS promoter inh cell count	GALR2 ag
N#Cc1nc(COc2ccccc2)oc1N1CCOCC1	.	.	103	1	-19	237	-0.5
O=C(C[n+]1ccc(Cc2ccccc2)cc1)Nc1ccc([N+](=O)[O-])cc1Cl	i	0.98	110	-3	32	118	.
CCC(=O)N1CCc2cc(S(=O)(=O)NC(C(=O)NCc3ccc(F)cc3)C(C)C)ccc21 (configuration not stated)	i	0.61	102	-6	.	.	-3.3
Nc1ccc(NC(=O)NC2CCCCC2)cc1	i	0.92	102	7	40	149	.
COc1ccccc1N1CCN(C2CCN(C(=O)c3cc(OC)c(OC)c(OC)c3)CC2)CC1	i	0.85	105	-14	-3	97	-0.8
COc1ccc(S(=O)(=O)NNC(=O)c2cc3cc4ccccc4nc3s2)cc1	i	0.91	94	-9	23	68	-1.0
COc1ccc(/C(O)=C2\C(=O)C(=O)N(c3cc(C)on3)C2c2ccc(OC)c(OC)c2)cc1OC (configuration not stated)	i	0.91	111	-3	18	132	-2.0
O=C(Nc1nccs1)c1cc(-c2ccco2)nc2ccccc12	i	0.92	105	6	15	81	-1.5
Nn1c(SCC(=O)Nc2ccc(F)cc2)nnc1-c1cccnc1	i	1.1	104	-5	0	124	-0.1
O=S(=O)(NCCc1ccccc1)c1cccc(S(=O)(=O)N2CCOCC2)c1	i	1	95	0	-21	88	-2.2
Cc1ccc(CN2C(=O)CCC2C(=O)N2CCN(c3ccccc3)CC2)cc1 (configuration not stated)	i	0.94	96	-3	4	91	.
O=S(=O)(/C=C/c1ccccc1)N1CCN(c2nc(-c3ccccc3)nc3ccccc23)CC1	i	0.76	101	-7	.	.	.
CCCCCC1CC1C(=O)N/N=C/c1ccc(N(C)C)cc1 (configuration not stated)	i	0.9	102	-1	.	.	-2.9
COc1ccc(C(C)(C)C)cc1NC(=O)COC(=O)c1cc(SC)ccc1Cl	i	0.99	99	1	.	.	0.1
Cn1c(Cc2c[nH]c3ccccc23)n[nH]c1=S	i	0.87	99	-7	4	94	-2.1
CCC(C)NC(=O)COC(=O)c1oc2ccccc2c1CSc1ccc(Cl)cc1 (configuration not stated)	i	0.9	78	-13	-37	130	1.8
Cn1/c(=N/N=C/c2ccc(N3CCOCC3)cc2)sc2ccccc21	i	0.91	98	-1	.	.	.
CC(=O)Nc1ccc(CN2CCCC(C(=O)c3ccc(C(F)(F)F)cc3)C2)cc1 (configuration not stated)	i	0.97	104	0	.	.	.
COc1ccc(/C=C/C(=O)Nc2cccc(S(=O)(=O)NC3=NCCCCC3)c2)cc1	i	0.83	94	.	.	.	.
Cc1c(N/C(=N/S(=O)(=O)c2cc([N+](=O)[O-])ccc2Cl)c2ccccc2)c(=O)n(-c2ccccc2)n1C	i	0.92	96	-2	.	.	.
COc1ccc(/C=N/NC(=O)c2cccnc2)cc1CN1CCOCC1	i	0.97	89	.	.	.	.
O=C(C1=C[C@H](c2csc3ccccc23)C[C@H](OCc2ccc(CO)cc2)O1)N1CCN(Cc2ccccc2)CC1	i	0.82	102	-4	.	.	.
O=C(CSc1nc(-c2ccco2)cc(C(F)(F)F)n1)N1CCc2ccccc2C1	i	1.1	87	-6	0	142	-2.0
O=C(COC(=O)CNS(=O)(=O)/C=C/c1ccccc1)NC1CCS(=O)(=O)C1 (configuration not stated)	i	0.82	103	-7	.	.	-3.5
Cc1ccc(OCC(=O)N2CCc3ccccc32)c([N+](=O)[O-])n1	i	0.72	102	1	27	81	.
CCOC(=O)c1c(-c2ccc(C)cc2)csc1NC(=O)CCN1CCOCC1	i	1	136	2	-9	90	0.2
CCOc1ccc(NC(=O)NC2CC(=O)N(c3ccc(OC)cc3)C2)cc1 (configuration not stated)	i	1.1	73	-2	17	54	.
O=C(CN1C(=O)NC2(CCc3ccccc32)C1=O)Nc1ccc(N2CCOCC2)cc1 (configuration not stated)	i	0.94	106	0	22	104	-3.0
Cc1ccccc1-c1cc(C(=O)Nc2sc(C(=O)OC(C)C)c(C)c2C#N)c2ccccc2n1	i	0.9	68	-4	0	76	-1.7
O=[N+]([O-])c1cccc(/C=C/c2nc(C=Nc3ccc4ccccc4c3)c(O)o2)c1	.	.	99	-5	18	72	0.1
O=C(CN(Cc1ccccc1)C1=NCCS1)c1ccccc1	i	0.93	95	5	.	.	-1.6
C/C(CCc1ccc2c(c1)OCO2)=N\NC(=O)c1ccccc1Br	i	1.1	81	-5	-50	108	.
Cc1ccc(S(=O)(=O)C(C#N)=C2N(C)c3ccccc3N2C)cc1	i	0.94	101	-4	.	.	.
Nc1ccc(C(=O)C(=O)c2ccc(N)cc2)cc1	i	1.2	101	.	.	.	.
Cc1ccc(NC2Sc3ccccc3NC2=O)cc1 (configuration not stated)	i	1	85	-4	9	131	.
CCOC(=O)C1=C(C)NC(=O)C1CC(=O)Nc1ccccc1 (configuration not stated)	?	.	77	-11	6	122	-2.0
Cc1ccc(NC(=O)CSc2nnc(C(F)(F)F)n2C)cc1[N+](=O)[O-]	i	0.99	59	-6	.	.	0.9
Cc1ccccc1Nc1c(-c2cccnc2)nc2ccccn12	i	1.1	99	.	.	.	.
O=C(O)c1ccc(N=Nc2c(O)[nH]c3ccccc23)cc1	i	0.95	102	.	.	.	.
Cc1cccc(-c2cc(C(=O)Nc3sc(C)c(C)c3C(N)=O)c3ccccc3n2)c1	.	.	95	-6	.	.	-1.0
Cc1cccc(N/C=C/C(=O)c2cccs2)c1C	i	0.94	108	-14	.	.	0.3
COc1ccc(/C=N/NC(=O)c2ccc(NC(=O)c3ccccc3Br)cc2)cc1	i	0.85	106	-16	-100	197	-1.3
CCn1c(C)c(P(=O)(N2CCOCC2)N2CCOCC2)c2ccccc21	i	0.99	102	-4	.	.	.
O=C(NCCc1nc2ccccc2[nH]1)/C(=C/c1ccc2c(c1)OCO2)NC(=O)c1ccccc1Cl	i	0.97	137	-9	-26	61	0.2
O=C(O)Cc1ccc(NC(=O)C2CCCCC2C(=O)O)cc1 (configuration not stated)	i	1.1	97	-18	38	109	-2.3

Single records, as listed above. Screens in order: HSV replic up | HSV replic up primary fold | RGS16-Gao HTS | PKD1 kinase inh | INS promoter inh | INS promoter inh cell count | GALR2 ag
COc1ccc(/C=N/NC(=O)c2ccc(NC(=O)c3ccccc3Br)cc2)cc1 across the screens: i | 0.85 | 106 | -16 | -100 | 197 | -1.3
CCn1c(C)c(P(=O)(N2CCOCC2)N2CCOCC2)c2ccccc21 across the screens: i | 0.99 | 102 | -4 | . | . | .
Cc1cccc(N/C=C/C(=O)c2cccs2)c1C across the screens: i | 0.94 | 108 | -14 | . | . | 0.3
O=C(O)Cc1ccc(NC(=O)C2CCCCC2C(=O)O)cc1 (configuration not stated) across the screens: i | 1.1 | 97 | -18 | 38 | 109 | -2.3
O=C(NCCc1nc2ccccc2[nH]1)/C(=C/c1ccc2c(c1)OCO2)NC(=O)c1ccccc1Cl across the screens: i | 0.97 | 137 | -9 | -26 | 61 | 0.2
